Screening data from PubChem BioAssay.
D2 PAM – Beta-Arrestin HTS for Positive Allosteric Modulators of the Human D2 Dopamine Receptor: Potentiators | DiscoveRx D2 beta-arrestin cells, luminescence, 90 min; 100% = 57 uM dopamine signal | potentiation, % (no concentration beside the values) | 360,000 compounds, 0.23% hits | AID 624464, 2012; active = potentiation of 50% or more; inconclusive = 30% to 50%; inactive = 30% or less;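 further: compound concentration not given in the record; tested on top of an EC20 dose of dopamine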
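D2 cells co-treated with compound plus 50 nM dopamine (EC20) for 90 min at 37 deg C to detect potentiation. Beta-arrestin recruitment was read as enzyme-fragment luminescence after 1 h at ambient temperature. Full response was set by 57 uM dopamine.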
TRPML1 blocker – qHTS for Inhibitors of the Human Mucolipin Transient Receptor Potential 1 (TRPML1); AID 624415, 2012; 390,000 compounds, 0.02% hits; TRPML1-inducible cells, Ca2+ dye fluorescence, FDSS; stronger effect = lower value; inhibition of EC80 agonist-evoked calcium signal; activity change, negative = inhibition, % (no concentration beside the values); in the data active means activity change below about -50%; inconclusive means about -30% to -50%; inactive means above about -30%;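 further: stimulus is agonist 54-4 at its EC80 concentration; on the % scale 0 is the no-effect control and ±100 the full control effect; compound concentration not given in the record; the text of the record puts the active cut at -80%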
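TRPML1-DL cells, Tet-induced overnight (~16 h, 37 °C) at 1,500 cells/well, were loaded with Ca8 no-wash dye plus quencher for 45-90 min at room temperature. Compounds were pinned during FDSS kinetic reading; agonist 54-4 at EC80 (4 uM final) then added.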
TRPML1 ag – qHTS for Agonists of the Human Mucolipin Transient Receptor Potential 1 (TRPML1); Mucolipin-1 (Homo sapiens), Q9GZU1; TRPML1-expressing cells, Ca2+ dye fluorescence, FDSS; host cell line not named in the record; reference of the full effect not given here; AID 624414, 2012; activation, % (test concentration not listed); 410,000 compounds, 0.12% hits; in the data active = activation above about 50%; inconclusive = about 30% to 50%; inactive = below about 30%; further: 0% is about no effect; the text of the record puts the active cut at 80%
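Cells: TRPML1-DL, 1X Tet inducer, ~16 h at 37 degrees C/5% CO2. Dye: ABD Ca8 no-wash + quencher, 45-90 min RT. Read: 10 s baseline, compound add, 110 s agonist phase; 54-4 EC80 (4uM final), 110 s antagonist phase.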
D2 agonist – Beta-Arrestin HTS for Positive Allosteric Modulators of the Human D2 Dopamine Receptor: Agonists | D(2) dopamine receptor (Homo sapiens), P14416 | DiscoveRx PathHunter D2 beta-arrestin, luminescence, 90 min; 100% = 57 uM dopamine signal | activation, % (no concentration beside the values) | 360,000 compounds, 0.084% hits; in the data active = activation above about 40%; inconclusive = about 15% to 40%; inactive = below about 15%; further: compound concentration not given in the record; the text of the record calls up to 30% inactive
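DiscoveRx PathHunter D2 beta-arrestin cells (2,100/well) attached overnight, then compound-stimulated 90 min at 37 C in HBSS/10 mM HEPES/0.1% Tween-20 buffer; beta-galactosidase complementation read by luminescence after 1 h at ambient temperature. Dopamine 57 uM final (EC100) as control.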
PINK1 modulator – A Quantitative High throughput Screen to Identify Chemical Modulators of PINK1 Expression. Potency, µM (series often up to 76.6 µM), for inactives: at the top dose activation (PINK1 increase), actives largely listed as activators. 410,000 compounds, 0.2% hits. PINK1 immunofluorescence, high-content cytometry, 24 h. AID 624263, 2012; active = well fitted activation curve with a large enough effect; inconclusive = small, poorly fitted or top-dose-only effect; inactive = flat fitted curve, though single readings scatter; cell line not stated here;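 further: potency means the concentration at half of the fitted maximal effect; % of control where 0% means no effect; nearly all actives have a fitted effect of over 65% in size; a mitochondrial uncoupler was the plate control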
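PINK1 protein level read as immunofluorescence by microplate cytometer in a fixed, stained stable cell line after 24 h exposure to five compound concentrations, with CCCP as control.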
Six1-Eya2 blk – qHTS Assay for Inhibitors of the Six1/Eya2 Interaction | Homeobox protein SIX1 (Homo sapiens) + Protein phosphatase EYA2 (Homo sapiens), … | AlphaScreen GST-Six1/His-Eya2 binding, biochemical; stronger effect = lower value; control for the full effect not named in the record | activity change, % (concentration not given with the values) | 360,000 compounds, 0.56% hits | AID 651725, 2012; in the data active = activity change below about -65%; inconclusive = about -30% to -65%; inactive = above about -30%; further: on the % scale 0 is the no-effect control and ±100 the full control effect
Target sequence (O00167 whole entry, looked up): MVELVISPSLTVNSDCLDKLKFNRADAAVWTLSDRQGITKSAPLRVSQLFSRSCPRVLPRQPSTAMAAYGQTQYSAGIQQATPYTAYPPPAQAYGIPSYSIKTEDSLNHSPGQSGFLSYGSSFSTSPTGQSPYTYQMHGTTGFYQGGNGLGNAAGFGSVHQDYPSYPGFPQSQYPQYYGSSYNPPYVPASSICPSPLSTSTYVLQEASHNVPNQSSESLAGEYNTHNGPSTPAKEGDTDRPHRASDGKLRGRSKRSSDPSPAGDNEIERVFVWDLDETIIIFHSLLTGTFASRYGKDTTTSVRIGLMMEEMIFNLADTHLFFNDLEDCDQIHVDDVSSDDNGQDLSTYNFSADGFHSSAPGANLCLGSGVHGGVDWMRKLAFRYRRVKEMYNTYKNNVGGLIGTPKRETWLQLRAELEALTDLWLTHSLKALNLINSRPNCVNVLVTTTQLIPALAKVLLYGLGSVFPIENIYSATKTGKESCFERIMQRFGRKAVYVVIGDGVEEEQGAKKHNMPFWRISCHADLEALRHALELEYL
Target sequence (Q15475 whole entry, looked up): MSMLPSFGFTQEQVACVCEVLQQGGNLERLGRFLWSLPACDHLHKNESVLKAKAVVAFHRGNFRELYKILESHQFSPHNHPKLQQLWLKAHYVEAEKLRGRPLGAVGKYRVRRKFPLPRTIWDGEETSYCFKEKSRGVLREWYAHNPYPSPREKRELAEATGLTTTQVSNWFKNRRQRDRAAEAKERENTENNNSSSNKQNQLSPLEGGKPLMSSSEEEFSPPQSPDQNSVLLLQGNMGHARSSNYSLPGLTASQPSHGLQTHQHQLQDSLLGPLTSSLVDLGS
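Six1/Eya2 binding was read as AlphaScreen signal after compounds were pinned into GST-Six1 plus His-tagged Eya2 (5X stock 250/500 nM) in pH 8.0 Tris/NaCl/TCEP buffer, beads added, then incubated 1 h, 37 C, dark.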
* = called active by the depositor; ? = inconclusive; . = not tested or not shown; [ ] = another dose, or the depositor's remark.

SMILES | D2 PAM | TRPML1 blocker | TRPML1 ag | D2 agonist | PINK1 modulator | Six1-Eya2 blk
O=c1[nH]cnc2nn(-c3ccccc3)nc12 | -9 | -19 | 3.3 | -1.6 | -2.1% | ?
Clc1ccc(Cc2noc(-c3cccs3)n2)cc1 | 1 | 22 | 3.2 | -3.9 | 4.1%[38.3 µM] | 40
COC(=O)CN1C(=O)C(O)(CC(=O)c2ccc(C)cc2)c2ccccc21 (stereo unspecified) | -7 | 38 | 0.8 | 4.6 | 0.9% | 11
NC(=O)Cn1nc(C(F)(F)F)c2c1CCCC2 | -4 | -2 | -0.5 | -1.9 | 1.8% | 11
Cc1ccccc1CNC(=O)C(C)Sc1ccccc1 (stereo unspecified) | -4 | 2 | 1.1 | 2.0 | 0.8% | -3
Cc1cccc(Cn2nnc3c2C(=O)c2ccccc2C3=O)c1 | 71* | -9 | 0.9 | 6.5 | . | ?
CCOC(=O)C1(Cc2cccc(OC)c2)CCN(Cc2ccon2)CC1 | -11 | 17 | 1.1 | -0.7 | -0.1% | 2
CC(C)Cn1c(-c2ccc(F)cc2)n[nH]c1=S | -18 | 12 | 0.8 | -1.2 | -1.8% | -1
Cc1ccc(C(=O)N2CCCCC2CCN2CCCCC2)cc1 (stereo unspecified) | . | -10 | 0.5 | . | -0.4% | .
Cc1cccc2cc(CN(CCCN3CCOCC3)Cc3nnnn3C(C)(C)C)c(=O)[nH]c12 | -15 | -9 | 0.1 | 0.5 | -2.9%[38.3 µM] | 4
CC(=O)/C=C/c1ccc(C)o1 | -16 | -9 | -0.6 | -2.0 | 0.6% | -16
Cc1cc(C(C)(C)C)cc(C)c1COC(=O)c1cccnc1 | 0 | -1 | 2.3 | 13 | 12% | 9
COc1ccc2c(CCNC(=O)/C=C/c3ccc(OC)c(OC)c3)c[nH]c2c1 | 6 | 17 | 3.6 | 1.0 | 12% | -16
Cc1cc(N2CCN(c3ccccc3)CC2)n2cc(-c3ccccc3)nc2n1 | -23 | -3 | 1.5 | -3.5 | -0.2% | -23
O=C(Cc1ccc(-c2ccccc2)cc1)Nc1ccccn1 | -5 | -2 | -0.1 | -0.9 | 2.2% | 2
CSc1ccccc1NC(=O)CN(C)C(=O)c1ccc(NC(=O)c2cccs2)cc1 | 6 | 25 | 0.4 | 2.2 | 3.7% | -2
CC(=O)c1ccc(NC(=O)c2ccc(CSc3ccccc3)o2)cc1 | -1 | 8 | 2.1 | 3.3 | -0.3% | -8
C/C(Sc1nnc(Cc2ccccc2)o1)=C(\O)c1ccccc1 | 0 | -15 | -0.4 | 0.5 | 0.6% | 12
COc1ccc(Cn2cc(Cn3c4ccccc4c(=O)n3C(C)C)nn2)cc1 | -9 | . | -0.6 | -5.2 | -0.1% | 4
Cn1cc(Cl)c(C(=O)Nc2nccs2)n1 | -6 | -16 | 0.1 | 2.2 | 3.6% | -3
CCOC(=O)c1c(C)[nH]c(C(=O)CC(=O)OC)c1C | -9 | 37 | 0.4 | -6.5 | 0.7% | -2
CC(C)c1ccc([C@@H]2O[C@H](CCc3ccccc3)Cc3[nH][nH]c(=O)c32)cc1 | . | . | -0.6 | . | 0.5% | -3
COc1cc(CCC(=O)Nc2sccc2C#N)cc(OC)c1OC | -1 | 13 | 0.3 | -2.6 | 0.8% | -4
CS(=O)(=O)c1ccc2nc(NC(=O)CN3C(=O)C4CC=CCC4C3=O)sc2c1 (stereo unspecified) | -5 | -3 | 0.1 | 2.4 | -1.2% | 3
COCCNC(=O)c1cc(-c2ccc3c(c2)OCO3)on1 | -8 | 1 | -0.3 | -1.3 | 2.0% | 11
CC1(C)Cc2c(sc3nnn(Cc4ccccc4)c(=O)c23)CO1 | -5 | 4 | -0.1 | -0.3 | 2.5% | 12
COc1ccc(C2NC(=O)c3ccccc3N2)cc1 (stereo unspecified) | -9 | 7 | -1.0 | -1.8 | 8.9% | 1
COc1ccc(-n2c(SCC(=O)Nc3cc(C(=O)O)ccc3C)nc3ccccc3c2=O)cc1Cl | -8 | -4 | 0.9 | -0.6 | 0.9% | ?
CC(C)C(NC(=O)CN(c1ccc2c(c1)OCCO2)S(=O)(=O)c1ccccc1)C(C)C | -8 | 27 | 1.9 | -3.1 | -1.6% | 7
O=C(CCc1nc2ccccc2s1)OCC(=O)c1ccccc1 | 2 | -10 | 1.1 | -3.0 | -0.2% | 9
Nc1ncnc2c1ncn2[C@@H]1O[C@H](CNS(=O)(=O)c2ccc(-c3ccno3)s2)[C@@H](O)[C@H]1O | -2 | 1 | -0.6 | 0.4 | -0.5% | 2
COC(=O)CCN1CCN(S(=O)(=O)c2cccc(Br)c2)CC1 | -6 | -14 | -0.2 | -0.7 | -0.2% | 2
CN(CC(=O)Nc1ccccc1C(F)(F)F)C(=O)COc1cccnc1[N+](=O)[O-] | -14 | -19 | 1.8 | 2.8 | -0.7% | 0
O=c1cc(-c2ccccc2)n2c(SCc3ccccc3Cl)nnc2[nH]1 | . | 3 | -0.4 | . | 9.4% | .
Brc1cccc(/C=N/Nc2nn[nH]n2)c1 | -1 | 11 | 0.7 | -4.0 | 1.8% | -4
C(=N\n1cnnc1)/C1CCCCC1 | 0 | -3 | 0.0 | 1.1 | 2.1% | 6
Cn1cc(S(=O)(=O)N2CCN(Cc3ccccc3)CC2)c(=O)n(C)c1=O | -4 | -2 | -0.6 | -3.1 | -2.4% | 2
CCOc1ccc(Nc2nc(N3CCOCC3)nc(N3CCOCC3)n2)cc1 | -24 | 4 | 1.9 | 0.2 | 1.1% | -3
CCOC(=O)c1sc(NC(=O)CNCc2cccnc2)c(C(=O)OCC)c1C | -3 | 9 | -0.2 | -4.1 | 5.9% | 10
CN(C)c1ccc(C(=O)NCC2CCCO2)cc1 (stereo unspecified) | -11 | -7 | -0.5 | -1.0 | 2.7% | 6
CCC(C)(C)n1nnnc1C(c1cc2cccc(C)c2[nH]c1=O)N1CCN(C(=O)c2ccco2)CC1 (stereo unspecified) | 8 | -13 | 1.5 | 1.0 | -2.3%[38.3 µM] | 3
C=CCNC(=O)CN1C2CCCC1CC(NC(=O)c1ccccc1C)C2 (stereo unspecified) | -20 | 2 | 2.2 | -2.3 | -0.6% | 6
COc1ccc(CCNC(=O)Cc2ccc(OCc3ccccc3)c(OC)c2[N+](=O)[O-])cc1OCc1ccccc1 | 2 | -12 | 0.7 | -1.1 | -2.0% | -11
Cn1c(=O)c([N+](=O)[O-])c(-n2cnc3ccccc32)c2ccccc21 | -3 | -7 | 0.0 | -2.2 | -1.5% | -1
Clc1ccc(-c2nsc(N3CCOCC3)n2)c(Cl)c1 | -5 | 19 | -0.3 | -3.9 | 0.0% | 11
COc1cc(C2c3c(oc4ccc(F)cc4c3=O)C(=O)N2Cc2ccc3c(c2)OCO3)ccc1O (stereo unspecified) | . | -5 | 0.3 | . | -1.3% | .
COc1ncc(-c2c(-c3ccccc3OC)sc3ccccc23)cn1 | . | . | 0.2 | . | 0.7% | 1
O=C(Nc1cnccn1)c1cccnc1 | -12 | 5 | -0.3 | -1.0 | 10%[38.3 µM] | -1
O=C(O)c1ccc(-n2nnnc2Oc2ccccc2C(=O)N2CCOCC2)cc1 | -4 | 0 | -0.7 | -3.5 | 4.0%[38.3 µM] | 2
COc1cc(/C=N/NC(=O)c2sc3ccccc3c2Cl)ccc1OC(=O)c1ccc([N+](=O)[O-])cc1 | -3 | -16 | -0.3 | 2.2 | 0.5% | 2
Cc1ccc(C2c3c(-c4ccccc4O)n[nH]c3C(=O)N2Cc2ccncc2)cc1 (stereo unspecified) | -8 | 12 | 0.4 | -2.7 | -4.1% | -14
O=S(=O)(c1ccc2nc(Nc3ccc(F)cc3)ccc2c1)N1CCCC1 | . | 24 | 2.2 | . | 2.8% | .
COc1cc2c(cc1NC(C)=O)CCCC2 | 2 | 32 | 0.1 | -0.2 | 3.4%[38.3 µM] | 1
C=CCSc1cc(C)nc2c(-c3ccccc3)cnn12 | -5 | 28 | 1.7 | -3.1 | 0.3% | 6
CCOC(=O)N1CCN(C(=O)c2ccc3c(Cl)c4c(nc3c2)CCCC4)CC1 | 14 | -16 | 1.1 | -0.2 | -1.5% | -4
CSc1nc(N)nc2c1ncn2CC(=O)NCc1ccc2c(c1)OCO2 | -6 | -18 | -1.1 | 1.2 | 0.3% | -1
CN(C)c1ccc(/C=C/C(=O)c2ccccc2)cc1[N+](=O)[O-] | -11 | 8 | 0.2 | -2.6 | 7.1% | 1
CC12CCC(C(=O)N3CCCc4ccccc43)(CC1=O)C2(C)C (stereo unspecified) | 4 | -3 | -0.4 | -1.8 | 1.9% | 5
O=C1/C(=C/c2ccco2)CCC1C1CCCC1 (stereo unspecified) | 0 | -2 | 0.1 | -4.2 | 3.6% | 4
Cc1ccccc1C(=O)NC(=S)N(C)CCc1ccccn1 | -3 | -2 | 0.5 | -0.2 | -2.3% | 8

Rows are unselected; 1% or so of the library scored in one or more.
